Screening results deposited in PubChem BioAssay by National Center for Advancing Translational Sciences (NCATS).
Cruzain inh Det – qHTS Assay for Promiscuous and Specific Inhibitors of Cruzain (with detergent); purified cruzain, Z-FR-AMC fluorescence, 0.01% Triton; Potency, µM, for the others: max response, negative = inhibition, usual class: inhibitors; 200,000 compounds, 0.43% hits; AID 1478, 2009; active = well fitted curve in the direction sought with a large enough effect; inconclusive = small, poorly fitted or top-dose-only effect, or another doubt; inactive = no such curve, though single readings can be large; an effect the other way counts as inactive or inconclusive;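 note: plate controls were neutral wells for no effect and buffer without enzyme for full effect; nearly all actives have a fitted effect of over 40% in size; top concentration of the series not given in the record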
Target sequence (P25779 123-467 limits assumed): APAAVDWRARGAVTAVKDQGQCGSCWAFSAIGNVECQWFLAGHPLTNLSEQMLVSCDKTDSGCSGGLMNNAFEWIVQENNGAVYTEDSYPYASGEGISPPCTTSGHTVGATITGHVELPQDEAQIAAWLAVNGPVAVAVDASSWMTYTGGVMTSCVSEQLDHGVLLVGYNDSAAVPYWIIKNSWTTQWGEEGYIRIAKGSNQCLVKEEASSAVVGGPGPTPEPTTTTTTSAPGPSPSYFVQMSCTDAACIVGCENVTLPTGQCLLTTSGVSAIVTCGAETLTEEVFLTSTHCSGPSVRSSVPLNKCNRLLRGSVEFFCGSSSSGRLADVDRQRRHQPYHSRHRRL
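Sodium acetate buffer (100 mM, pH 5.5) containing 5 mM DTT and 0.01% Triton X-100 hosted 1.5 nM cruzain and test compound for 15 min at room temperature. Cleavage of 2 uM Z-FR-AMC was then tracked by fluorescence.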
SARS PLpro yeast – qHTS of Yeast-based Assay for SARS-CoV PLP | 330,000 compounds, 0.19% hits | S. cerevisiae expressing SARS-CoV PLpro, growth rescue; control for the full effect not named in the record | Potency, µM (doses to about 32.9 µM), inactives show at the top dose activity, positive = growth rescue | AID 485353, 2010; note: 0% is about no effect; nearly all actives have a fitted effect of over 55% in size; growth read by luminescence after 48 h
LASV entry inh – qHTS for Inhibitors of binding or entry into cells for Lassa Virus; Lassa virus pseudotype entry inhibition, cell reporter; control for the full effect not named in the record; Potency, µM (series often up to 37.9 µM), for the others: at the highest dose activity change, negative = inhibition, actives largely listed as inhibitors; 300,000 compounds, 1.2% hits; AID 540256, 2011; active means well fitted inhibition curve with a large enough effect; inconclusive means small, poorly fitted or top-dose-only effect, or effect the other way; inactive means flat fitted curve, though single readings scatter; tested in HEK293 cells; note: % is set by controls: 0 for no effect and ±100 for the full control effect; nearly all actives have a fitted effect of over 50% in size; luciferase read-out
NS1 function inh – qHTS Assay for Inhibitors of Influenza NS1 Protein Function. AID 2326, 2010. S. cerevisiae slowed by influenza A NS1, growth recovery by OD600. Potency, µM (series often up to 46.1 µM), inactives show top-dose activity, positive = more growth. 270,000 compounds, 0.4% hits; note: actives are rising curves; nearly all actives have a fitted effect of over 50% in size
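A cell-based growth assay was used: compounds that relieve NS1-induced slow growth of budding yeast raise OD600. Assay medium was yeast nitrogen base with ammonium sulphate and -URA supplement, pH 6.0, with 2% galactose.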
Marburg entry inh – qHTS for inhibitors of binding or entry into cells for Marburg Virus. Marburg virus pseudotyped entry inhibition, cell reporter; control for the full effect not named in the record; about a third of the inactives were read at about 46 µM. 300,000 compounds, 1.8% hits. Potency, µM (top dose mostly 37.8 µM), inactives show at the highest dose activity change, negative = inhibition, hits mostly inhibitors; active = well fitted inhibition curve with a large enough effect; inconclusive = small, poorly fitted or top-dose-only effect, or effect the other way; inactive = flat fitted curve, though single readings scatter; tested in HEK293 cells; about a fifth of its hits are not listed in these tables; note: % is set by controls: 0 for no effect and ±100 for the full control effect; luciferase read-out
RE007 growth inh – qHTS Assay for Inhibitors of the HIV-1 protein Vpr; 360,000 compounds, 0.21% hits; AID 651644, 2012; Potency, µM (top dose mostly 92.2 µM), inactives show at the highest dose activity change, negative = less growth; S. pombe RE007 Vpr strain, BacTiter-Glo ATP luminescence, 24 h; control for the full effect not named in the record; active = well fitted falling curve with a large enough effect; inconclusive = small, poorly fitted or top-dose-only effect; inactive = no such curve, though single readings can be large or run the other way;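 note: % is set by controls: 0 for no effect and ±100 for the full control effect; nearly all actives have a fitted effect of over 50% in size; the assay follows cell death caused by Vpr and the record does not say whether a fall means rescue or toxicity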
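Fission yeast strain RE007, carrying one chromosomally integrated HIV-1 vpr copy, was seeded at OD 0.01 in PMG+AL medium with 23 nL pinned compound. After 24 h at 30 °C and 99% humidity, viability was read by BacTiter-Glo luminescence.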
StopGo reporter – High Throughput Screening for Foot and Mouth Disease Virus Antivirals; 410,000 compounds, 1.2% hits; AID 1159524, 2015; human cells with a luciferase reporter of 2A StopGo recoding; control for the full effect not named in the record; Potency, µM (titrated, usually from 57.9 µM), inactives show top-dose signal change, negative = less light; active = well fitted falling curve with a large enough effect; inconclusive = small, poorly fitted or top-dose-only effect; inactive = no such curve, though single readings can be large or run the other way; tested in HEK293T cells; note: % is set by controls: 0 for no effect and ±100 for the full control effect; nearly all actives have a fitted effect of over 45% in size; luciferase light after 4 h
Cruzain noTriton – qHTS Assay for Promiscuous and Specific Inhibitors of Cruzain (without detergent). Potency, µM, for inactives: max response, negative = inhibition, most hits filed as inhibitors. AID 1476, 2009. 200,000 compounds, 2.3% hits. purified cruzain, Z-FR-AMC fluorescence, no detergent; active = well fitted curve in the direction sought with a large enough effect; inconclusive = small, poorly fitted or top-dose-only effect, or another doubt; inactive = no such curve, though single readings can be large; an effect the other way counts as inactive or inconclusive;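 note: plate controls were enzyme without inhibitor for no effect and buffer without enzyme for full effect; nearly all actives have a fitted effect of over 40% in size; top concentration of the series not given in the record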
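Purified cruzain at 1.5 nM, pre-incubated 15 min with compound at room temperature in 100 mM sodium acetate pH 5.5, 5 mM DTT, 0.00005% Triton X-100. Reaction started with 2 uM Z-FR-AMC; AMC fluorescence increase over 60 s gives rate.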
Starred values were filed as active, the others as inactive; ? = inconclusive; nt = not tested or not shown; & = joins results of further samples; [ ] = dose if it differs, or a comment. Unless noted, calls come from the whole dose curve; as a rule, active means well fitted rising curve with a large enough effect; inconclusive means small, poorly fitted or top-dose-only effect; inactive means no such curve, though single readings can be large or run the other way. Potency is the fitted concentration of half-maximal effect.

SMILES	Cruzain inh Det	SARS PLpro yeast	LASV entry inh	NS1 function inh	Marburg entry inh	RE007 growth inh	StopGo reporter	Cruzain noTriton
CCc1ccc(/C=N/n2c(C3CCCCC3)n[nH]c2=S)cc1	nt	-2%	nt	2%	nt	-3%	-26%	nt
O=C1c2ccccc2NC(c2ccccc2O)N1c1ccc(F)cc1 (stereo not given)	nt	0%	?	0%	?	-25%	6%	nt
Cc1ccc(CNC(=O)CCCc2c[nH]c3ccccc23)cc1	nt	-3%	-25%[46.1 µM]	-7%	11%[46.1 µM]	-1%	19%	nt
O=C(NCCc1ccccc1)c1cc2ccccc2oc1=O	nt	1%	nt	16%	nt	12%	12%	nt
CCOC(=O)N1CCN(c2cc(=O)n(-c3ccc(OCC)cc3)c(=O)[nH]2)CC1	-6.7%	-7%	2%	7%	2%	-5%	4%	?
Cc1c(C(=O)N2CCC(C)CC2)oc2ccc(S(=O)(=O)N3CCC4(CC3)OCCO4)cc12	-3.4%	-5%	?	-12%	-11%	19%	nt	?
CCOc1cccc(SCc2noc(C(=O)NCC3CCCO3)c2C(=O)O)c1 (stereo not given)	-0.5%	4%	nt	26%	5%	7%	-10%	10%
C=CCN(CC=C)CCOc1ccc(OC(C)C)cc1	nt	1%	4%[46.1 µM]	nt	-15%[46.1 µM]	-11%	5%	nt
Cc1ccc(N2CCN(S(=O)(=O)N(C)C)CC2)cc1Cl	2.7%	12%	-3%	10%	-5%[46.1 µM]	9%	12%	5%
CNS(=O)(=O)c1ccc(C)c(S(=O)(=O)NC)c1	0.0%	-1%	-10%	5%	13%	22%	10%	2%
COc1cc(OC)c2c(C)c(CC(=O)N3CCCCC3)c(=O)oc2c1	-12%	nt	-1%[46.1 µM]	nt	7%[46.1 µM]	nt	26%	-7%
O=C(C1CCCN(S(=O)(=O)c2ccc(Br)s2)C1)N1CCN(c2cccc(Cl)c2)CC1 (stereo not given)	-3.0%	nt	-26%[46.1 µM]	nt	-27%[46.1 µM]	nt	?	?
CC1CCCCC1NC(=O)CSc1nnc(CNC(=O)c2ccccc2)n1C (stereo not given)	nt	3%	nt	0%	nt	9%	-14%	nt
Cc1ccc(-c2cc(C(=O)N/N=C/c3cccnc3)n[nH]2)o1	-3.2%	2%	-16%	4%	4%	4%	-10%	0%
Cc1ccc(OCCn2nnc3sc4c(c3c2=O)CCC(C)C4)cc1 (stereo not given)	-0.1%	nt	-6%[46.1 µM]	nt	?	nt	2%	-6%
CCCc1ccc(OCC(=O)NNC(=O)c2cccnc2)cc1	nt	2%	1%	nt	3%[46.1 µM]	-1%	9%	nt
COc1cc(S(=O)(=O)N2CCOCC2)cc(C(=O)c2nccn2C)c1OC	-10%	0%	-14%	-6%	1%	-2%	nt	-15%
Cc1cc(N2CCC(C)CC2)nc2ccc(NC(=O)Cc3ccccc3Br)cc12	1.0%	nt	0%[46.1 µM]	nt	?	nt	0%	6%
CCOC(=O)N1CCN(C(=O)CCCn2nnnc2CN2CCC(C)CC2)CC1	nt	-5%	nt	-2%	nt	-8%	-1%	nt
O=C(O)C1C2C=CC(O2)C1C(=O)NCc1ccc2c(c1)OCO2 (stereo not given)	-1.2%	-20%	3%	1%	6%	-27%	4%	2%
CC(=C/c1ccccc1)/C=N/NC(=O)c1cccs1	nt	-1%	?	-53%	?	-16%	3%	nt
CC1CCCN(C(=O)c2ccc3ncsc3c2)C1 (stereo not given)	nt	3%	3%	nt	8%[46.1 µM]	11%	-3%	nt
COc1cccc2c1O/C(=N\O)C(C(=O)Nc1ccc(C)cc1)C2 (stereo not given)	nt	-3%	nt	-4%	nt	3%	6%	nt
CCOc1cc2c(cc1/C=C/c1noc(C)c1[N+](=O)[O-])OC(C)C2 (stereo not given)	nt	-1%	12%[46.1 µM]	-8%	7%[46.1 µM]	-2%	-10%	nt
Cc1c(C#N)c2ccccc2n1CCOc1ccccc1F	0.3%	2%	5%	1%	?	0%	nt	-26%
(next part)
SMILES	Cruzain inh Det	SARS PLpro yeast	LASV entry inh	NS1 function inh	Marburg entry inh	RE007 growth inh	StopGo reporter	Cruzain noTriton
COc1ccc(NC(=O)N2CCCC(c3ccccc3)C2)cc1 (stereo not given)	nt	-3%	nt	-6%	nt	21%	0%	nt
Cc1ccc(C2=NN(CCC(=O)NC3CCCC3)C(=O)CC2)cc1	nt	2%	nt	-3%	nt	93%	-4%	nt
Cc1ccc(C)c(C2=NNC(=NCc3ccccc3)SC2)c1	nt	-3%	?	nt	?	-12%	6%	nt
CCN1CCN(C(=O)c2cccc(OC3CCN(S(C)(=O)=O)CC3)c2)[C@@H](C)C1=O	nt	5%	1%	-6%	23%	-31%	-5%	nt
COc1ccc(Cn2c(C(=O)O)c(CNC3CCCCC3)c3ccc(C)cc32)cc1	-3.7%	nt	4%[46.1 µM]	nt	nt	nt	-13%	7%
Cc1ccc(Cn2ccn(Cc3ccc(C)cc3)c(=O)c2=O)cc1	-3.6%	nt	-19%[46.1 µM]	nt	nt	nt	-13%	-10%
CCn1c(-c2c[nH]c3ccccc23)n[nH]c1=S	1.9%	1%	2%	-14%	2%	-26%	nt	-1%
COc1ccc(C)c2sc(N3CCN(C(=O)c4ccco4)CC3)nc12	-4.7%	nt	17%[46.1 µM]	nt	nt	nt	-18%	?
CCN(CC)CCNC(=O)c1ccc(-c2nc(CS(=O)(=O)c3ccc(C)cc3)c(C)o2)cc1	-1.0%	nt	4%[46.1 µM]	nt	nt	nt	-11%	-10%
O=C(O)Cc1ccc(S(=O)(=O)N2CCCC2)s1	nt	11%	-2%[46.1 µM]	nt	13%&13%	3%	-22%	nt
O=C(COc1ccc(F)cc1)OCc1cc(=O)n2nc(C3CC3)sc2n1	-2.9%	nt	27%[46.1 µM]	nt	nt	nt	-26%	-8%
CCn1c2ccccc2c2cc(/C=N/NC(=O)c3cccc(C)c3)ccc21	6.6%	-1%	-27%	-17%	?	-8%	-10%	7.9µM*
COc1ccccc1C1C(C(=O)NCc2ccccc2)=C(C)Nc2ncnn21 (stereo not given)	4.1%	0%	9%	0%	?	-3%	13%	-3%
Cc1ccccc1N=C1NC(=O)/C(=C/c2cccn2-c2cccc(C(=O)O)c2)S1	nt	0%	-24%[46.1 µM]	1%	11%[46.1 µM]	-11%	-2%	nt
CCn1nc(C)c(CCN(C)C(=O)Nc2cc(C)cc(C)c2)c1C	1.9%	nt	5%[46.1 µM]	nt	nt	nt	-7%	-4%
CCc1nnc(SC(CC)C(=O)Nc2cc(C)ccc2C)c2cc3occc3n12 (stereo not given)	-7.5%	nt	14%[46.1 µM]	nt	nt	nt	-22%	-15%
CCN1/C(=C/C=C2/SC(=Nc3cccc4ncccc34)N(C)C2=O)Sc2ccccc21	nt	nt	2%[46.1 µM]	nt	-3%[46.1 µM]	-5%	3%	nt
O=C(N/N=C/c1cccc(OC(=O)c2ccc3c(c2)OCO3)c1)c1cncc(Br)c1	-2.0%	-10%	13%	20%	30%	-9%	-6%	?
CCCC(C)NC(=O)COC(=O)c1ccccc1SCC(=O)NC(C)CCC (stereo not given)	nt	0%	1%	nt	-23%[46.1 µM]	24%	7%	nt
COC(=O)[C@H](c1ccccc1Cl)N1CCc2sccc2C1	nt	-13%	nt	-37%	nt	-5%[18.4 µM]	-16%	nt
O=[N+]([O-])c1cc(C(F)(F)F)cc([N+](=O)[O-])c1NCCNC(=S)Nc1ccc(Cl)c(Cl)c1	nt	-6%	?	-38%	?	1%	-23%	nt
O=C(Nc1ccon1)c1cccn(Cc2ccccc2)c1=O	-4.6%	nt	18%[46.1 µM]	nt	nt	nt	-15%	-12%
COc1ccc2cc(C)c3nnc(SCC(=O)Nc4nc(-c5ccc(F)cc5)cs4)n3c2c1	-2.7%	6%	4%	-4%	-14%	-3%	-22%	-23%
CCc1ccc(N=C2NC(=O)/C(=C/c3cc(OC)c(O)c(OC)c3)S2)cc1	nt	-2%	nt	5%	nt	-2%	-7%	nt
CC(=O)Nc1ccc(C(=O)Nc2ccc(S(=O)(=O)NCC3CCCO3)cc2)cc1 (stereo not given)	4.5%	-4%	3%	?	5%	5%	60%[activator]	-4%
(next part)
SMILES	Cruzain inh Det	SARS PLpro yeast	LASV entry inh	NS1 function inh	Marburg entry inh	RE007 growth inh	StopGo reporter	Cruzain noTriton
Cc1nc2ccc(N=NC3=C(O)CC(C)(C)CC3=O)cc2s1	-8.9%	-30%	14%	-4%	?	0%	0%	4%
COC(=O)c1cc(CNC(=O)C(C)NS(=O)(=O)c2ccc(C)c(C)c2)ccc1OC (stereo not given)	nt	-1%	1%	-4%	-16%[46.1 µM]	-12%	2%	nt
CC(C)C[C@H](NC(=O)N1CC(=O)Nc2ccccc21)C(=O)N[C@@H](Cc1c[nH]c2ccccc12)C(=O)O	nt	-1%	nt	?	nt	-14%	-21%	nt
CC(=O)c1ccc(OCC(C)C)c(CN2CCCCC2)c1	-0.4%	12%	-11%	0%	?	-1%	-16%	-8%
COc1ccc(S(N)(=O)=O)cc1C(=O)NNC(=O)c1cccc(S(=O)(=O)N2CCOCC2)c1	nt	nt	2%	nt	14%	-20%	-7%	nt
CCCCCCn1c(CN2CCCCC2)nc2c1c(=O)n(C)c(=O)n2C	nt	nt	-22%	-6%	?	-3%	?	nt
CC1(C)Cc2c(cnn2-c2ccccc2)C(NC(=O)C2(C(N)=O)CC2)C1 (stereo not given)	nt	11%	-11%	1%	?	8%	3%	nt
CCOC(=O)C(C)(C)N(Cc1cccc(C)c1)S(=O)(=O)c1cccc([N+](=O)[O-])c1	-7.0%	-51%	?	-7%	?	-4%	?	17%
O=C(CNc1cccc([N+](=O)[O-])c1)N/N=C/c1ccc(F)cc1	nt	-4%	-6%[46.1 µM]	nt	?	-11%	-3%	nt
COc1ccc2c(c1OC)C(=O)OC2CC(=O)c1ccc(O)cc1 (stereo not given)	9.5%	7%	30%	11%	0%	1%	-14%	11%
Cc1cccc(NC(=O)C(=O)NCC(c2cccnc2)N2CCc3ccccc3C2)c1C (stereo not given)	-0.5%	nt	7%[46.1 µM]	nt	nt	nt	?	-18%
